# Marburg entry inh = Marburg virus entry inhibition. Potency, µM (highest dose often 37.8 µM), for inactives: at the highest dose activity change, negative = inhibition, hits mostly inhibitors. 1.8% of 300,000 active. AID 540276. Marburg virus pseudotyped entry inhibition, cell reporter; control for the full effect not named in the record; about a third of the inactives were read at about 46 µM; active = well fitted inhibition curve with a large enough effect; inconclusive = small, poorly fitted or top-dose-only effect, or effect the other way; inactive = flat fitted curve, though single readings scatter; tested in HEK293 cells; about a fifth of its hits are not listed in these tables; note: % is set by controls: 0 for no effect and ±100 for the full control effect; luciferase read-out
# RE007 growth inh = less growth of the S. pombe RE007 Vpr strain | S. pombe RE007 Vpr strain, BacTiter-Glo ATP luminescence, 24 h; control for the full effect not named in the record | Potency, µM (series often up to 92.2 µM), without a hit: at the highest dose activity change, negative = less growth | 0.21% of 360,000 active | AID 651644; active = well fitted falling curve with a large enough effect; inconclusive = small, poorly fitted or top-dose-only effect; inactive = no such curve, though single readings can be large or run the other way;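 note: % is set by controls: 0 for no effect and ±100 for the full control effect; nearly all actives have a fitted effect of over 50% in size; the assay follows cell death caused by Vpr and the record does not say whether a fall means rescue or toxicity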
#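 Fission yeast strain RE007, carrying one chromosomally integrated HIV-1 vpr copy, was seeded at OD 0.01 in PMG+AL medium with 23 nL pinned compound. After 24 h at 30 °C and 99% humidity, viability was read by BacTiter-Glo luminescence.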
# Cruzain noTriton = blocks cruzain activity in detergent-free assay | P25779 | purified cruzain, Z-FR-AMC fluorescence, no detergent | Potency, µM, without a hit: max response, negative = inhibition, usual class: inhibitors | 2.3% of 200,000 active;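 note: plate controls were enzyme without inhibitor for no effect and buffer without enzyme for full effect; nearly all actives have a fitted effect of over 40% in size; top concentration of the series not given in the record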
# Target sequence (P25779 123-467 limits assumed): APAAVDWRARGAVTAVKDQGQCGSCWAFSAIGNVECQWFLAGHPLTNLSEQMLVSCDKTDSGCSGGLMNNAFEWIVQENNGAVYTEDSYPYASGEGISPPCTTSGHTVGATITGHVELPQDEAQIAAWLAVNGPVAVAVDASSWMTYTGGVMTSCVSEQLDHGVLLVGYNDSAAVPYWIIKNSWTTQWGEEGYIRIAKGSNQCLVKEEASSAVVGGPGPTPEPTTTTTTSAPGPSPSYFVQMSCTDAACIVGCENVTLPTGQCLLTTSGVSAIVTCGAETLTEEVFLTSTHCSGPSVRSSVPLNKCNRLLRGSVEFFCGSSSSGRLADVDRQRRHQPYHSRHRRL
#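 Purified cruzain at 1.5 nM, pre-incubated 15 min with compound at room temperature in 100 mM sodium acetate pH 5.5, 5 mM DTT, 0.00005% Triton X-100. Reaction started with 2 uM Z-FR-AMC; AMC fluorescence increase over 60 s gives rate.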
# 2A StopGo = FMDV 2A StopGo reporter, luciferase signal; human cells with a luciferase reporter of 2A StopGo recoding; control for the full effect not named in the record; 1.2% of 410,000 active; Potency, µM (highest dose often 57.9 µM), for inactives: at the highest dose signal change, negative = less light; AID 1159524; active = well fitted falling curve with a large enough effect; inconclusive = small, poorly fitted or top-dose-only effect; inactive = no such curve, though single readings can be large or run the other way; tested in HEK293T cells; note: % is set by controls: 0 for no effect and ±100 for the full control effect; nearly all actives have a fitted effect of over 45% in size; luciferase light after 4 h
# NS1 function inh = blocks influenza NS1 protein function. S. cerevisiae slowed by influenza A NS1, growth recovery by OD600. Potency, µM (series often up to 46.1 µM), without a hit: top-dose activity, positive = more growth. 0.4% of 270,000 active. AID 2326; active means well fitted rising curve with a large enough effect; inconclusive means small, poorly fitted or top-dose-only effect; inactive means no such curve, though single readings can be large or run the other way; note: nearly all actives have a fitted effect of over 50% in size
#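 Read-out: OD600 growth recovery of NS1-expressing budding yeast. Cells grown overnight at 30C in -URA glucose medium, washed, resuspended and diluted 1:100 in 2% galactose assay medium, pH 6.0. Same strain lacking NS1 served as positive control.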
# Cruzain Triton = blocks cruzain activity in presence of Triton detergent; Potency, µM, for inactives: max response, negative = inhibition, hits mostly inhibitors; P25779; AID 1478; 0.43% of 200,000 active; purified cruzain, Z-FR-AMC fluorescence, 0.01% Triton;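 note: plate controls were neutral wells for no effect and buffer without enzyme for full effect; nearly all actives have a fitted effect of over 40% in size; top concentration of the series not given in the record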
#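 Detergent-containing arm of a paired screen for aggregation-based inhibition: 0.01% Triton X-100 present. Cruzain at 1.5 nM cleaved 2 uM Z-FR-AMC at pH 5.5 with 5 mM DTT; AMC fluorescence gain over 60 s measured activity.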
# SARS PLpro yeast = SARS-CoV PLP inhibition in yeast; 0.19% of 330,000 active; S. cerevisiae expressing SARS-CoV PLpro, growth rescue; control for the full effect not named in the record; Potency, µM (top dose mostly 32.9 µM), for inactives: top-dose activity, positive = growth rescue; active means well fitted rising curve with a large enough effect; inconclusive means small, poorly fitted or top-dose-only effect; inactive means no such curve, though single readings can be large or run the other way; note: 0% is about no effect; nearly all actives have a fitted effect of over 55% in size; growth read by luminescence after 48 h
# Lassa entry inh = blocks Lassa virus binding to or entry into cells; Potency, µM (top dose mostly 37.9 µM), without a hit: at the top dose activity change, negative = inhibition, actives largely listed as inhibitors; Lassa virus pseudotype entry inhibition, cell reporter; control for the full effect not named in the record; 1.2% of 300,000 active; active means well fitted inhibition curve with a large enough effect; inconclusive means small, poorly fitted or top-dose-only effect, or effect the other way; inactive means flat fitted curve, though single readings scatter; tested in HEK293 cells; note: % is set by controls: 0 for no effect and ±100 for the full control effect; nearly all actives have a fitted effect of over 50% in size; luciferase read-out
# The depositor's hits bear a star; ? = inconclusive; / = not tested or not shown; & = joins results of further samples; [ ] = remark or other dose. Unless noted, calls come from the whole dose curve; as a rule, active = well fitted curve in the direction sought with a large enough effect; inconclusive = small, poorly fitted or top-dose-only effect, or another doubt; inactive = no such curve, though single readings can be large; an effect the other way counts as inactive or inconclusive. Potency is the fitted concentration of half-maximal effect.
SMILES,Marburg entry inh,RE007 growth inh,Cruzain noTriton,2A StopGo,NS1 function inh,Cruzain Triton,SARS PLpro yeast,Lassa entry inh
CC(C)C(=O)Nc1cccc(C(=O)Nc2nnc(CC(C)(C)C)s2)c1,1%[46.1 µM],/,3%,0%,/,-4.7%,/,1%[46.1 µM]
CCc1nnc2c3ccccc3nc(Nc3ccc(F)c(Cl)c3)n12,3%[46.1 µM],/,-8%,?,/,-0.3%,/,0%[46.1 µM]
CC(C)Nc1nnc(SC(C)C(=O)NCc2ccc3c(c2)OCO3)s1 (stereo unspecified),-8%[46.1 µM],-10%,/,-12%,/,/,3%,-3%[46.1 µM]
NC(=O)C1CN(C(=O)c2nn(Cc3ccccc3)c(=O)c3ccccc23)c2ccccc2O1 (stereo unspecified),?,6%,/,-13%,/,/,5%,?
O=C(Nc1cccnc1)c1cc(-c2ccc3c(c2)OCO3)on1,?,2%,-15%,-18%,7%,2.6%,?,?
Cc1cccc(OCCCn2c(CCNC(=O)C(C)(C)C)nc3ccccc32)c1,-36%[46.1 µM],/,?,-28%,/,-3.2%,/,11%[46.1 µM]
CSc1nc2ccccc2nc1N(C)S(=O)(=O)c1ccc(C)cc1,15%[46.1 µM],-10%,/,-18%,1%,/,-1%,-11%[46.1 µM]
CC(C)OC(=O)c1cccc(C(=O)Nc2cccc(NC(=O)c3cccc(C(=O)OC(C)C)n3)n2)n1,?,7%,/,?,/,/,-1%,-7%[46.1 µM]
Cn1cccc1C(=O)OCC(=O)NNC(=O)c1ccc([N+](=O)[O-])cc1,0%[46.1 µM],-4%,/,-8%,/,/,1%,10%
O=C(O)C1C2CCC(C2)C1C(=O)NCCCn1ccnc1 (stereo unspecified),1%,-5%,-20%,10%,-10%,1.6%,-6%,13%
CN(C(=O)CSc1nncn2c1cc1occc12)c1ccccc1,/,/,0%,-21%,/,-8.4%,/,6%[46.1 µM]
COc1cc(Nc2nc3ccccc3c3nnc(C)n23)cc(OC)c1,/,/,?,-29%,/,-10%,/,-5%[46.1 µM]
CNC(=O)CSc1nnc(-c2ccc(S(=O)(=O)N3CCCC3)cc2)n1-c1cccc(C)c1C,-8%,-9%,?,/,-4%,0.9%,-2%,-12%
Cn1c(=O)n(C)c2cc([N+](=O)[O-])c(N3CCN(C(=O)c4ccccc4Br)CC3)cc21,?,-6%,/,16µM*,-4%,/,1%,?
CCc1cccc(NC(=O)CS(=O)Cc2nc(-c3ccc(C)cc3)oc2C)c1 (stereo unspecified),/,2%,23%,3%,/,-10%,-21%,/
COC(C(=O)Nc1ccc(S(=O)(=O)N2CCCCC2)cc1)c1ccccc1 (stereo unspecified),16%,18%,15%,12%,1%,0.3%,-4%,3%
COCCCNC(=O)C1=CCN(S(=O)(=O)c2ccc(C)cc2)CC1,/,0%,/,-1%,11%,/,4%,/
CN(CC(=O)Nc1ccc(Cl)c(Cl)c1)C(=O)C12CC3CC(CC(C3)C1)C2,?,15%,-30%,0%,4%,-4.5%,-18%,?
CC1(C)C(C(=O)OCC(Cl)(Cl)Cl)N2C(=O)C(NC(=O)Cc3ccccc3)C2S1=O (stereo unspecified),/,16%,/,-12%,4%,/,-1%,/
Cc1ccc(N2C(=O)NC(=O)/C(=C/C=C/c3ccco3)C2=O)cc1,?,-6%,17%,?,4%,-2.1%,-14%,-27%
O=C(CSc1nnc(-c2ccccn2)n1Cc1ccccc1)N1CCCC1,?,-8%,2%,-11%,3%,2.5%,4%,12%
COc1cccc(NS(=O)(=O)c2ccc3[nH]cc(C(=O)N4CCCC4)c(=O)c3c2)c1,-8%[46.1 µM],/,4%,1%,/,-7.0%,/,0%[46.1 µM]
NC(=O)c1nsc(C(=O)N(Cc2ccco2)C(C(=O)NCc2ccc(F)cc2)c2ccc(O)cc2)c1N (stereo unspecified),2%[46.1 µM],-16%,/,-1%,-27%,/,1%,/
CC1=C(C(=O)Nc2ccccn2)C(c2ccc(F)cc2)n2ncnc2N1 (stereo unspecified),-5%,-14%,4%,/,-4%,1.2%,12%,?
CC(C)(C)C(=O)C1=C(O)C(=O)N(Cc2ccccc2)C1c1ccccc1F (stereo unspecified),?,4%,/,86%[activator],-11%,/,-4%,-21%
CCc1[nH]nc2c1C1(CCN(C(=O)c3ccccc3)CC1)C(C#N)=C(N)O2,-1%,-17%,9%,/,0%,0.5%,-1%,-2%
CCCCn1c(=O)[nH]c(=O)c2c1nc(-c1ccccc1OC(F)F)n2C,3%,-1%,/,4%,-1%,/,3%,-3%
COc1cc(OC)nc(NC(=O)CS(=O)(=O)c2ccccc2)n1,2%&2%,2%,-1%,18%,16%,-0.4%,-21%,-6%
CCOc1ccc2nc(SCc3ccc(CC(=O)O)cc3)c(C#N)cc2c1,?,15%,/,-12%,2%,/,1%,-27%
COc1ccc(CCNC(=O)c2c(O)c3cccc4c3n(c2=O)CC4)cc1OC,1%,3%,?,7%,2%,-11%,3%,-12%
CCCCCOC(=O)CSc1nc2c(c(=O)[nH]c(=O)n2C)n1CCc1ccccc1,24%,-17%,3%,-2%,-6%,-2.1%,0%,-2%
CCC1CN(C(=O)N2CCC(C(=O)NCc3ccccc3OC)CC2)c2ccccc2O1 (stereo unspecified),/,16%,/,-15%,5%,/,-3%,/
CCOC(=O)N1CCC(N(CCN(C)C)C(=S)Nc2cccc(Cl)c2C)CC1,-17%,9%,-5%,-22%,-11%,-3.4%,-2%,?
Fc1ccc(-c2csc3nnc(SCc4cccnc4)n23)cc1,3%,1%,14%,-33%,-1%,-0.9%,3%,-5%
Cc1ccc(Nc2c([N+](=O)[O-])ccc3nonc23)c(C)c1,4%[46.1 µM],7%,/,-18%,8%,/,1%,5%[46.1 µM]
O=C(NC1CC1)c1cc(=S)[nH]c2ccccc12,?,5%,/,-6%,/,/,5%,13%
O=C(NCc1ccccc1)C1C(=O)N(Cc2ccccc2)C(=O)C1C1(O)CCCC1 (stereo unspecified),?,12%,4%,-11%,0%,-1.3%,-2%,?
CCOc1ccc(S(=O)(=O)n2cnc3ccccc32)cc1,6%[46.1 µM],-25%,/,-15%,9%,/,-3%,-7%[46.1 µM]
CC#CCN1c2ccccc2[C@]23C[C@@H](C(=O)OC)N=C2NC(C(=O)OC)=C(C(=O)OC)[C@H]13,/,-10%,/,-19%,18%,/,0%,/
Cc1sc2ncnc(N3CCC(C(=O)Nc4ccccc4C(C)(C)C)CC3)c2c1C,?,-13%,/,25µM*,/,/,-1%,-3%[46.1 µM]
Cc1cccc(C)c1Nc1c(-c2ccccc2Cl)nc2cnccn12,?,/,13%,-7%,/,-5.9%,/,-16%[46.1 µM]
Cc1nc2ccc(-c3nc4ccccc4[nH]3)cc2[nH]1,-17%[46.1 µM],-10%,/,-12%,?,/,-1%,?
CCN(CC)c1ccc(/C=N/NC(=O)CNC(=O)c2ccccn2)cc1,?,9%,/,8%,/,/,-4%,4%
COC(=O)CNC(=O)CN1C(=O)N(c2cccc(Cl)c2)C(N(O)C(=O)Nc2cccc(Cl)c2)C1(C)C (stereo unspecified),-3%,-1%,?,?,18%,-3.9%,-3%,-2%
O=C(O)c1cc(N2CCCCC2)nc2ccccc12,-3%[46.1 µM],7%,/,12%,/,/,/,-8%[46.1 µM]
COc1cc(Br)cc(C=Nc2cccc(C(F)(F)F)c2)c1O,?,?,3%,-17%,-48%,-4.1%,-31%,4%
COc1ccc(CN2C3CCCC2CC(NC(=O)Nc2ccccc2C)C3)cc1 (stereo unspecified),?,11%,9%,-4%,-5%,-1.8%,8%,0%
CSc1ccccc1C(=O)N1CCC2(CC1)CC(=O)c1ccccc1O2,-19%,7%,/,?,/,/,-1%,-3%
Cc1ccc(C(=O)OCC(=O)NCc2cccs2)cc1,5%,-2%,-1%,-3%,5%,-1.4%,-2%,3%
Cc1ccc(SCCSc2nc(N)cc(=O)[nH]2)cc1,/,1%,/,-4%,17%,/,7%,/
O=C(NCCN1CCOCC1)c1ccccc1OCc1ccccc1,-20%,6%,/,-5%,/,/,1%,-4%
Cc1nn(CC(=O)c2ccccc2Cl)c(C)c1[N+](=O)[O-],-16%[46.1 µM],25%,/,45%[activator],/,/,-2%,-1%
CCOc1ccccc1NS(=O)(=O)c1ccc(-c2cnc(C3CC3)o2)cc1,/,-9%,?,?,-7%,-8.1%,-4%,?
O=C(c1cc([N+](=O)[O-])ccc1N1CCOCC1)N1CCCC1,?,-5%,-11%,0%,5%,-7.7%,2%,-2%
Cc1cccc(NC2=NCC(=O)N2Cc2ccccc2)c1,7%,1%,-3%,9%,1%,4.8%,0%,5%
CC1=C(C)C(O)N(Cc2ccccc2)C1=O (stereo unspecified),/,-14%,/,3%,6%,/,4%,/
COCCC(=O)N1CCCC(C(=O)c2ccc3c4c(cccc24)CC3)C1 (stereo unspecified),/,-11%,/,-6%,5%,/,0%,/
Cc1ccc(-c2ccc(CCC(=O)O)n2-c2cccc(C(=O)O)c2)cc1,/,5%,/,9%,6%,/,1%,/
Nc1nc(C23CC4CC(CC(C4)C2)C3)cs1,-5%&-5%,8%,2%,/,-6%,3.1%,-3%,-9%
Cc1ccc(S(=O)(=O)N(CC(=O)N2CCCC2)C2CCCCC2)cc1,-17%,2%,-5%,38%[activator],1%,-0.4%,2%,-13%

# New compounds follow:
SMILES,Marburg entry inh,RE007 growth inh,Cruzain noTriton,2A StopGo,NS1 function inh,Cruzain Triton,SARS PLpro yeast,Lassa entry inh
CCc1cccc(C)c1NC(=O)C1CCN(c2nn3c(=O)cc(C)nc3s2)CC1,6%&6%[46.1 µM],-4%,?,-13%&-16%,6%,0.8%,0%,-4%[46.1 µM]
S=c1[nH]c(-c2ccccc2)cn1/N=C/c1ccccc1Br,?,-19%,/,32%[activator],/,/,-4%,3%
COC(=O)CC(C(=O)Nc1cc(C(=O)OC)cc(C(=O)OC)c1)N1CCN(C)CC1 (stereo unspecified),16%&-5%,-21%,/,24%,8%,/,/,13%
Cc1ccc(CN(C(=O)c2csnn2)C(C(=O)NC2CCCC2)c2ccc(C)o2)cc1 (stereo unspecified),1%,-7%,24%,10%,-5%,-6.0%,2%,-11%
